TRPML1 agonist: qHTS for Agonists of the Human Mucolipin Transient Receptor Potential 1 (TRPML1); Mucolipin-1 (Homo sapiens), Q9GZU1; AID 624414, 2012; 410,000 tested, 0.12% active; activation, % (no concentration beside the values); TRPML1-expressing cells, Ca2+ dye fluorescence, FDSS; host cell line not named in the record; reference of the full effect not given here; in the data active = activation above about 50%; inconclusive = about 30% to 50%; inactive = below about 30%; also: 0% is about no effect; the text of the record puts the active cut at 80%
Target sequence (Q9GZU1 whole entry, looked up): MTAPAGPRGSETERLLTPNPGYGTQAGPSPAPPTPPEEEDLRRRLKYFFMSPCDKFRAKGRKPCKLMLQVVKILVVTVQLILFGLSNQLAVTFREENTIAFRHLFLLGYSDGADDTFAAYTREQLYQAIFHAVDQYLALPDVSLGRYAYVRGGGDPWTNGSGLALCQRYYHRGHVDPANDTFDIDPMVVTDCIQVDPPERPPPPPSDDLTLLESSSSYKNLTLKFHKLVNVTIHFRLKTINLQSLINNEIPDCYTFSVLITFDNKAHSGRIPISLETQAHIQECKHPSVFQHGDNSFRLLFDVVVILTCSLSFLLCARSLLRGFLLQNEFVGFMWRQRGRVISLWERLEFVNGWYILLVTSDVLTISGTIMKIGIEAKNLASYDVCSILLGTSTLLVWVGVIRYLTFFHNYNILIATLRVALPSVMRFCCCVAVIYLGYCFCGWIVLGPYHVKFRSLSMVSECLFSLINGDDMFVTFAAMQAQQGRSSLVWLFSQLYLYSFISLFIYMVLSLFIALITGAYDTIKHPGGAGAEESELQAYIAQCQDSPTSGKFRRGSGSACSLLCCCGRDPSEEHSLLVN
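Tet-induced TRPML1-DL cells, 1,500 per well, cultured overnight, were loaded with a no-wash Ca2+ dye for 45–90 min. Calcium fluorescence was recorded on the FDSS for 110 s after compound addition, before the EC80 agonist (4 uM 54-4) was added.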
D2 agonist: Beta-Arrestin HTS for Positive Allosteric Modulators of the Human D2 Dopamine Receptor: Agonists. 360,000 tested, 0.084% active. DiscoveRx PathHunter D2 beta-arrestin, luminescence, 90 min; 100% = 57 uM dopamine signal. D(2) dopamine receptor (Homo sapiens), P14416. activation, % (test concentration not listed). AID 624465, 2012; in the data active = activation above about 40%; inconclusive = about 15% to 40%; inactive = below about 15%; also: compound concentration not given in the record; the text of the record calls up to 30% inactive
Target sequence (P14416 whole entry, looked up): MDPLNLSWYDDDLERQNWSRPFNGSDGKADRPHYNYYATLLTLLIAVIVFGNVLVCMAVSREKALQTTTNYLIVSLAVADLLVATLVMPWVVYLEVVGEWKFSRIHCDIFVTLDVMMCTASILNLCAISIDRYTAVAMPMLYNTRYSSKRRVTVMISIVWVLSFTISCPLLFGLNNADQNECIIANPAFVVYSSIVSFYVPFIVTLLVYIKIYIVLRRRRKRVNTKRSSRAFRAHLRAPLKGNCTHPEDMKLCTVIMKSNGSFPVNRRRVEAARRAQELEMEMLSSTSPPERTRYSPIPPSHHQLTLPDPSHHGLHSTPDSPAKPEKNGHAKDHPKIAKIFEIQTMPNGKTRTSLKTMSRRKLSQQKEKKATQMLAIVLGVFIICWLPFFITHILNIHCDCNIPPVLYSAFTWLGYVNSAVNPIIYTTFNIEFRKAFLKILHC
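DiscoveRx PathHunter D2 beta-arrestin cells (2,100/well) attached overnight, then compound-stimulated 90 min at 37 C in HBSS/10 mM HEPES/0.1% Tween-20 buffer; beta-galactosidase complementation read by luminescence after 1 h at ambient temperature. Dopamine 57 uM final (EC100) as control.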
CtBP-E1A blk: qHTS Assay for Inhibitors of the CtBP/E1A Interaction | AlphaScreen GST-E1A/His-CtBP binding, 1536-well; hits give low values; control for the full effect not named in the record | activity change, % (concentration not given with the values) | 340,000 tested, 0.49% active; in the data active means activity change below about -65%; inconclusive means about -30% to -65%; inactive means above about -30%; also: % is scaled to controls: 0 for no effect and ±100 for the full control effect
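AlphaScreen with 125 nM GST-E1A and 125 nM His-CtBP (5X stocks) in Tris pH 8.0, 300 mM NaCl, BSA, Tween 20, TCEP. Compounds preincubated 2 h at 37 deg C, then glutathione donor/nickel acceptor beads added for 1 h at 37 deg C in dark.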
TRPML1 blocker: qHTS for Inhibitors of the Human Mucolipin Transient Receptor Potential 1 (TRPML1); Mucolipin-1 (Homo sapiens), Q9GZU1; TRPML1-inducible cells, Ca2+ dye fluorescence, FDSS; hits give low values; inhibition of EC80 agonist-evoked calcium signal; activity change, negative = inhibition, % (test concentration not listed); 390,000 tested, 0.02% active; AID 624415, 2012; in the data active means activity change below about -50%; inconclusive means about -30% to -50%; inactive means above about -30%;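 also: stimulus is agonist 54-4 at its EC80 concentration; % is scaled to controls: 0 for no effect and ±100 for the full control effect; compound concentration not given in the record; the text of the record puts the active cut at -80%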
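Tet-induced TRPML1-DL cells loaded with Ca8 no-wash calcium dye were read kinetically on FDSS. Compound addition was followed by EC80 agonist 54-4 (4 uM final); inhibition was read over 110 s.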
Six1-Eya2 blk: qHTS Assay for Inhibitors of the Six1/Eya2 Interaction; Homeobox protein SIX1 (Homo sapiens) + Protein phosphatase EYA2 (Homo sapiens), …; AlphaScreen GST-Six1/His-Eya2 binding, biochemical; hits give low values; control for the full effect not named in the record; activity change, % (concentration not given with the values); 360,000 tested, 0.56% active; AID 651725, 2012; in the data active = activity change below about -65%; inconclusive = about -30% to -65%; inactive = above about -30%; also: % is scaled to controls: 0 for no effect and ±100 for the full control effect
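Homogeneous AlphaScreen proximity assay pairing GST-Six1 with His-tagged Eya2 (added as 5X mix: 250 nM and 500 nM) in 50 mM Tris pH 8.0, 300 mM NaCl, 1 mM TCEP. Glutathione donor and nickel acceptor beads; 1 h, 37 °C, dark.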
PINK1 expr mod: A Quantitative High throughput Screen to Identify Chemical Modulators of PINK1 Expression | AID 624263, 2012 | PINK1 immunofluorescence, high-content cytometry, 24 h | Potency, µM (highest dose often 76.6 µM), inactives show top-dose activation (PINK1 increase), most hits filed as activators | 410,000 tested, 0.2% active; active = well fitted activation curve with a large enough effect; inconclusive = small, poorly fitted or top-dose-only effect; inactive = flat fitted curve, though single readings scatter; cell line not stated here;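 also: potency is read from the fitted curve at half-maximal effect; % of control where 0% means no effect; nearly all actives have a fitted effect of over 65% in size; a mitochondrial uncoupler was the plate control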
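Fluorescence from anti-PINK1 antibody, together with nuclear and cell stains, was scanned on a laser-scanning cytometer. Before staining, stable-line cells were incubated 24 hours with compounds at 5 concentrations; primary antibody 12 h at 10 degrees C.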
Numbers without * were called inactive; u = inconclusive; x = no result given; & = joins results of further samples; [ ] = dose if it differs, or a comment.

SMILES	TRPML1 agonist	D2 agonist	CtBP-E1A blk	TRPML1 blocker	Six1-Eya2 blk	PINK1 expr mod
COc1ccc2[nH]c3c(=O)n(CCCN4CCOCC4)cnc3c2c1	0.1	-3.2	-9	1	-7	0.1%
CN(C)C(=S)NC(=O)C12CC3(C)CC(C)(CC(C)(C3)C1)C2	-0.1	-2.8	6	-27	-3	5.7%
Cc1ccc(NC(=O)c2oc3ccc(S(=O)(=O)N4CCC5(CC4)OCCO5)cc3c2C)cc1C	1.5&0.9	-2.7	-2	17&-2	-6	0.3%&9.8%
CC(=O)c1cccc(NC(=O)N2CCCC2C(=O)NCc2ccc3c(c2)OCO3)c1 (centres undefined)	-0.1	-6.1	-1	4	1	0.0%
O=S(=O)(NCCNc1ncc(C(F)(F)F)cc1Cl)C(F)(F)F	1.9	3.3	1	-14	-2	40µM*
O=C(NCc1ccccn1)C(C(=O)c1cccc([N+](=O)[O-])c1)n1cc(Cl)ccc1=O (centres undefined)	-0.1	0.1	-3	12	1	0.4%
CCCCC(=O)NC(c1ccc(N(CC)CC)cc1)c1ccc2cccnc2c1O (centres undefined)	0.0	-0.1	-78*	25	u	11%
CC(C)N(CCCNC(=O)c1ccc(CS(=O)(=O)c2c(Cl)cccc2Cl)o1)Cc1ccccc1	-1.3	-2.8	-9	21	0	-1.7%
Cc1cc(C)cc(N(CC(=O)NC(C)(C)C)C(=O)CCC(=O)Nc2ccccn2)c1	x	3.1	x	x	5	1.0%
Cc1ccccc1OCC(=O)Nc1nnc(-c2ccco2)s1	-0.6	-3.3	2	-6	10	2.6%

Among those listed so far, these contain a Cl atom:
SMILES	TRPML1 agonist	D2 agonist	CtBP-E1A blk	TRPML1 blocker	Six1-Eya2 blk	PINK1 expr mod
O=S(=O)(NCCNc1ncc(C(F)(F)F)cc1Cl)C(F)(F)F	1.9	3.3	1	-14	-2	40µM*
O=C(NCc1ccccn1)C(C(=O)c1cccc([N+](=O)[O-])c1)n1cc(Cl)ccc1=O (centres undefined)	-0.1	0.1	-3	12	1	0.4%
CC(C)N(CCCNC(=O)c1ccc(CS(=O)(=O)c2c(Cl)cccc2Cl)o1)Cc1ccccc1	-1.3	-2.8	-9	21	0	-1.7%

Remaining list, next part
SMILES	TRPML1 agonist	D2 agonist	CtBP-E1A blk	TRPML1 blocker	Six1-Eya2 blk	PINK1 expr mod
Cc1cccc(NS(=O)(=O)c2ccc(S(=O)(=O)N3CCCC3)cc2)c1	-1.0	0.6	3	-9	0	1.5%
CCC(=O)N1CCN=C1SCc1cc(C)ccc1C	0.3	-3.8	4	22	10	0.4%
Cn1c(SCC(=O)Nc2ccc(N3CCOCC3)cc2)nnc1-c1ccccc1	1.0	-1.1	-4	5	-2	-1.9%[38.3 µM]
O=C(NC1CCCCC1)C(=S)N1CCCC1	-0.4	0.2	12	-6	2	-0.1%
COc1cc(C)c(S(=O)(=O)N2CCOCC2)cc1C	0.2	1.2	19	9	1	-4.5%[38.3 µM]
COc1ccc(C)cc1NC(=O)C1CCCN(S(=O)(=O)c2cccc3nonc23)C1 (centres undefined)	0.7	-4.5	1	19	0	u
CCOC(=O)c1cnc2c(c(C)nn2C)c1Oc1ccc(OC)cc1	-1.3	-1.7	x	-14	-1	2.1%
CC(=O)Nc1ccc(S(=O)(=O)NN=Cc2ccc(Cl)c(Cl)c2)cc1	1.3	-6.3	-3	-2	1	5.3%
Cc1nc(N)sc1-c1csc(Nc2cc(N(C)C)ccc2Cl)n1	-0.6	-3.1	u	6	-73*	0.2%
O=C1c2ccccc2NC(c2cn[nH]c2-c2ccc(Cl)cc2)N1O (centres undefined)	-0.1	-2.7	-8	11	-4	2.2%
Cc1ccccc1CSc1nnc(-c2ccncc2)n1C	-0.9	-3.9	-3	6	1	-1.0%
COCCN1C(=O)c2oc3cc(C)c(C)cc3c(=O)c2C1c1cccc(O)c1 (centres undefined)	-0.6	-4.5	3	7	-1	0.7%
COc1ccc(OC)c(N(C(=O)c2snc(C(N)=O)c2N)C(C(=O)NCC2CCCO2)c2ccc3ncccc3c2)c1 (centres undefined)	0.5	-0.9	0	7	-1	0.2%
CC(CC(=O)O)CC(=O)Nc1nncs1 (centres undefined)	-0.2	-2.1	0	0	-7	3.2%
CC(=O)c1ccc(N2C(=O)[C@@H]3C(C(=O)CCN4C(=O)c5ccccc5C4=O)=NN[C@@H]3C2=O)cc1	0.4	-0.5	-3	4	0	3.5%
CCOc1ccc(N2C(=O)CS(=O)(=O)C23C(=O)N(Cc2cccc(Cl)c2)c2ccccc23)cc1 (centres undefined)	0.9	x	x	-12	x	-4.1%
O=C(NCc1cccnc1)C12CC3CC(CC(Cl)(C3)C1)C2	-0.4	-1.7	15	-14	8	0.3%
Cc1onc(-c2c(F)cccc2Cl)c1C(=O)NCc1cccs1	0.7	-2.0	9	21	7	-0.8%[38.3 µM]
CCCCCOc1ccc(C(C)(O)C(CN2CCOCC2)c2ccccc2)cc1 (centres undefined)	0.1	-5.6	x	-5	-9	0.0%
O=C(OC1CCOC1=O)c1ccc(N2CCCC2)c([N+](=O)[O-])c1 (centres undefined)	-0.2	-2.7	-3	-9	2	1.3%
COc1ccccc1C(=O)O/N=C(/C)c1ccc(N2C(=O)C3CCCCC3C2=O)cc1 (centres undefined)	1.7	3.2	4	2	-2	1.1%
CCOC(=O)CC(NC(=O)Cn1nnc(-c2ccccc2)n1)c1ccc(OC)cc1 (centres undefined)	-0.4	-5.8	-6	2	-4	0.5%
O=c1oc2ccccc2cc1-c1csc(Nc2nc3c(F)cccc3s2)n1	0.5	-3.8	0	5	-3	10%
CCOC(=O)Cc1csc(NC(=O)Cc2ccc([N+](=O)[O-])cc2)n1	-0.2	-2.6	4	22	8	-1.8%
Cc1cc(N2CC(C(=O)NCc3cccnc3)CC2=O)ccc1C(C)C (centres undefined)	1.3	-2.0	4	18	-9	1.9%
O=S(=O)(NC1CCCCC1NS(=O)(=O)c1ccc(F)cc1)c1ccc(F)cc1 (centres undefined)	-0.2	0.2	2	1	1	-5.1%[38.3 µM]
CCOC(=O)N1CCN(Cc2nc3cc([N+](=O)[O-])ccc3n2C)CC1	1.5	-1.9	5	70	-3	1.8%
CCOC(=O)c1cn[nH]c1NC(=S)Nc1ccc(Cl)cc1	1.3	4.1	-1	-14	-6	u
CCOP(=O)(Cc1ccc(C(C)(C)CC(C)=O)o1)OCC	0.4	-10	x	29	-3	-1.3%
CC(NCC(=O)Nc1ccccc1C(=O)NC1CC1)c1ccc(S(C)(=O)=O)cc1 (centres undefined)	0.1	1.7	x	32	14	2.3%
O=C(CBr)c1ccc([N+](=O)[O-])c(CS(=O)(=O)c2ccc(Cl)cc2)c1	0.0	54*	x	9	0	6.7%
CCCN(CC(=O)Nc1ccccc1OC)C(=O)c1cc(-c2cccs2)nn1-c1ccccc1	1.4	3.4	-1	2	-14	0.7%
Cc1nnc(-c2cnn(-c3ccccc3)c2N)n1Cc1ccc(F)cc1	-0.9	-3.2	1	4	-1	-2.0%
CCCCC(=O)Nc1nnc(C)s1	0.6	0.3	5	4	9	1.2%
Cc1ccccc1Cc1ccc(Cl)nn1	-0.3	1.7	-19	-3	7	-0.4%
CCCC(=O)c1ccc(N2CCCC2)c(F)c1	-0.5	-3.7	5	8	3	-1.2%
O=C(CN1CCN(S(=O)(=O)c2ccc(F)cc2)CC1)c1ccc(O)c(O)c1	0.0	-0.5	-9	2	-10	-1.2%
O=C(CN1CC(=O)Oc2ccccc21)OCC(=O)c1ccccc1	-0.1	5.2	-92*	6	-91*	1.6%[38.3 µM]
O=C(O)CCCCCN1C(=O)CCC1=O	-0.5	0.0	6	-7	-4	-0.1%
CCC(=O)NC(=S)Nc1cccc(Cl)c1N1CCCC1	1.9	1.2	5	9	34	7.3%
COc1ccc(NC(=O)C(NS(=O)(=O)c2ccc3c(c2)CCCC(=O)N3)C(C)C)c(OC)c1 (centres undefined)	0.5	x	x	-7	x	-0.5%
Cc1nn(CC(=O)NCc2ccccc2)c(=O)c2cccn12	0.7	-10	x	-28	6	-1.5%
Cc1ccc(NC(=O)Nc2nnc(N3CCCC3)s2)cc1	-0.6	x	x	8	x	-1.0%
CC(C)C(=O)N1CCc2cc(-c3csc(N)n3)ccc21	3.7	3.2	10	12	-3	1.3%[38.3 µM]
Cc1cccc(-n2cc(CN3CCN(Cc4nccn4C)CC3)c(-c3cccc(F)c3)n2)c1	0.8	-4.6	x	-2	1	1.8%
CCN(c1ccccc1)S(=O)(=O)c1ccc(C(=O)Nc2cccc(C)n2)cc1	1.5	-1.6	-10	3	3	-0.8%
Cn1c(CN2CCOCC2)nc2cc(NC(=O)c3ccc(F)cc3)ccc21	1.0	-0.2	7	-3	3	x
CC(C)c1ccc(/C=c2\sc3n(c2=O)C(N)=C(C#N)C(c2ccc(C(C)C)cc2)C=3C(N)=O)cc1 (centres undefined)	0.4	-2.5	-2	-9	-12	3.8%
O=C(O)c1cccc2c1C(=O)c1ccccc1C2=O	0.1	-7.6	-2	10	1	-1.5%
CCNC(=S)NS(=O)(=O)c1ccc(C)cc1	0.4	-7.8	-2	21	6	1.6%

Next compounds follow:
SMILES	TRPML1 agonist	D2 agonist	CtBP-E1A blk	TRPML1 blocker	Six1-Eya2 blk	PINK1 expr mod
CSc1cccc(NC(=O)CSc2nnc(C)s2)c1	-0.3	1.1	-3	4	4	-2.5%[38.3 µM]
N#Cc1c(F)cccc1N1CCC(C#N)CC1	-0.4	2.7	-1	-2	9	0.8%
CCc1cnc2c(c1SCC(=O)c1ccc(Cl)cc1)c(=O)n(C)c(=O)n2C	-0.4	x	x	-12	x	-0.3%
CO/N=C(\C)C(Cc1ccc(Cl)nc1)Cc1ccc(Cl)nc1	0.9	-3.0	17	1	4	-0.1%
Cn1cc(-c2ccccc2C(N)=O)c(=O)c2ccccc21	-0.8	0.2	-2	23	5	2.2%
COc1cccc(NC(=O)COC(=O)C2C3CC4OC(=O)C2C4C3)c1 (centres undefined)	0.7	-1.1	0	-2	-1	0.6%
CCOC(=O)c1c(Nc2ccccc2N)cc(C)nc1C	-0.3	0.7	15	7	14	2.7%
CC(=O)Nc1ccc(OS(=O)(=O)c2ccc(Cl)cc2)cc1	-0.5	-1.6	-6	5	-1	1.0%
CCOP(=O)(OCC)/C(C#N)=C(\O)c1ccc(OC)cc1	-0.5	-0.5	-19	-11	-18	-0.8%
O=C(Nc1sc2c(c1-c1nc3ccccc3[nH]1)CCCC2)C1CCCC1	-1.0	-5.2	8	19	-1	0.0%
CCC(=O)N1c2ccccc2C(N(C(=O)CC)c2ccccc2)CC1C (centres undefined)	0.7	-0.9	-1	-6	-5	0.9%
